PABP FP inh – blocks human PABP binding to poly(A) RNA. fluorescence polarization. inhibition, % at 35 µM. 1% of 290,000 active. AID 2014;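 active means 50% or more with normal probe brightness, or confirmed in later tests; inconclusive means above 50% with abnormal brightness, or retests that disagree; inactive means below 50% or failed in later tests; about a fifth of its hits are not listed in these tables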;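 further: calls also rest on retests at 20 µM and on dose response follow-up; controls were probe without protein and protein plus probe with vehicle; some compounds called inactive have numbers as strong as hits; many hits fall short of the cut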
Target sequence (P11940 whole entry, looked up): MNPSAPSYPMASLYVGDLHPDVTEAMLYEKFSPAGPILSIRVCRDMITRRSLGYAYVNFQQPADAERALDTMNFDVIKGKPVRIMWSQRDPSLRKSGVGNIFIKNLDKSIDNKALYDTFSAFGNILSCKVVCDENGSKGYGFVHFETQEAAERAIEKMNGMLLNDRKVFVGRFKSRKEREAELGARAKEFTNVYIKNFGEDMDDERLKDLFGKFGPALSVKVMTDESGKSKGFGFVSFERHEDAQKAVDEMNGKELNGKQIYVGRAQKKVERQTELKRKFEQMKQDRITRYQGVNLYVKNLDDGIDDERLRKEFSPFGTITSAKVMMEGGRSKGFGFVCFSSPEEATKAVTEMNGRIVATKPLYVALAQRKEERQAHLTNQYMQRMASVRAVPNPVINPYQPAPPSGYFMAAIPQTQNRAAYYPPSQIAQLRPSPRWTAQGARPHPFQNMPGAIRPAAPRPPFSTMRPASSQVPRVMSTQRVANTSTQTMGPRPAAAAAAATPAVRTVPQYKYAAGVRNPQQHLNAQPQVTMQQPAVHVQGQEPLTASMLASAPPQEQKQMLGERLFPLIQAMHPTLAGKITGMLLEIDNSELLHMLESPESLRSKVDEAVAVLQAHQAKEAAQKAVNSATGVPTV
MT1-MMP act inh – blocks activation of human MT1-MMP; P50281; HT1080 RFP-PRO-GFP cells, GFP/RFP ratio fluorescence, overnight; percent of plate control window, DMSO zero; GFP/RFP ratio change, % at 20 µM; 0.061% of 360,000 active; AID 651647;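 active means GFP/RFP ratio change of at least 30% with cell ATP level not reduced by more than half and red fluorescence within 50% of control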; further: strong numbers were not always called active
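Compound: 20 µM single dose, 1% DMSO / System: HT1080 RFP-PRO-GFP cells / Controls: DMSO and RFP-L50D-GFP cell wells / Read-out basis: GFP/RFP fluorescence ratio / Schedule: overnight compound exposure at 37 °C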
eIF4H inh – inhibitors of RNA binding by human eIF4H; Q15056; eIF4H fluorescence polarization binding assay; inhibition, % at 35 µM; 0.94% of 290,000 active; AID 2012;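 active means 50% or more with normal probe brightness, or confirmed in later tests; inconclusive means above 50% with abnormal brightness, or retests that disagree; inactive means below 50% or failed in later tests; about a fifth of its hits are not listed in these tables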;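 further: calls also rest on retests at 20 µM and on dose response follow-up; 0% = protein and probe with vehicle and 100% = probe without protein; strong numbers were not always called active; many hits fall short of the cut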
Rce1 inhib – yeast Ras-converting enzyme inhibition; yeast membranes, quenched prenylated peptide cleavage fluorescence; calls only; 0.27% of 290,000 active; AID 2563;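 active means fall in fluorescence gain of 50% or more versus controls, with final raw signal at or below 3038400; inconclusive means same 50% fall but final raw signal above 3038400; inactive means fall in fluorescence gain under 50%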;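 further: plate controls were neutral control wells for no effect and wells lacking membranes for full effect; tested at 10 µM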
UUG fidelity – modulators of start codon recognition fidelity in yeast; S. cerevisiae UUG-firefly luciferase reporter, luminescence/redox ratio; activity score, % at 18.7 µM; 0.13% of 350,000 active;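 active means replicate mean at a twofold rise or more, about +100% in these data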;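 further: firefly luciferase made from a UUG start codon reports start codon fidelity; reporter light over untreated wells divided by growth signal over untreated wells; some hits fall short of that in this replicate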
CSC inhib – blocks cancer stem cells. cancer stem cell-like cells viability, luminescence. inhibition, % at 7.5 µM. 1.1% of 300,000 active. AID 2717;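 active means mean at 75% or more and at least half the replicates too; inconclusive means mean and replicates disagree; tested in HMLE shEcad cells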;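 further: 0% = median of negative and 100% = median of positive control wells; the first replicate is given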
HIV Env fusion – inhibitors of HIV Env-mediated cell fusion; HeLa-JRFL Env/CEM21 cell fusion, luciferase; inhibition, % at 12.3 µM; 1.1% of 360,000 active;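 active means mean replicate inhibition score of at least 50 and every replicate individually at or above 50; inconclusive means only one of the two criteria met; inactive means mean below 50 and not all replicates reaching 50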;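 further: 0% = plate neutral controls and 100% = maraviroc near 300 nM; one replicate is shown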
MT1-MMP act inh RFP – recorded beside MT1-MMP act inh, whose call it bears; RFP signal change, %; measured here: RFP expression control read;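 0 = vehicle wells; hits needed this value within 50% of zero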
* = called active by the depositor; i = inactive; ? = inconclusive; / = no result given; & = joins results of further samples.

mol	PABP FP inh	MT1-MMP act inh	MT1-MMP act inh RFP	eIF4H inh	Rce1 inhib	UUG fidelity	CSC inhib	HIV Env fusion
O=C(Nc1ccccc1)c1nn(-c2cccc(C(F)(F)F)c2)ccc1=O	?	5	5	-8	i	/	-14	-8
C[C@@H]1CN([C@@H](C)CO)S(=O)(=O)c2ccc(C#CC(C)(C)O)cc2O[C@H]1CN(C)C(=O)C1CCCCC1	/	4	3	/	/	32&2	/	-45
CN(Cc1ccccc1)C(NC(=O)c1ccccc1)C(Cl)(Cl)Cl (stereo unspecified)	-7	-1	2	-8	i	3	7	-7
CCCC1(C(=O)OC)NC(c2cc(OC)c(OC)c(OC)c2)C2C(=O)N(CC)C(=O)C21 (stereo unspecified)	8	1	2	-2	/	-18	9	-40
CC1=NN(c2ccccc2)C(=O)C1N=Nc1ccccc1 (stereo unspecified)	1	0	-2	2	i	/	2	-35
O=C(Cn1c(COc2ccccc2)nc2ccccc21)Nc1cc(Cl)ccc1Cl	-8	-3	-9	3	i	/	2	-21
COc1ccc(-c2cc(C(=O)OCC(=O)N3CCCC3)c3ccccc3n2)cc1	-2	1	2	8	i	5	0	/
NC(=O)c1cc(C(=O)c2ccccc2Cl)c[nH]1	-1	-1	-1	-13	i	/	-10	11
Cc1ccccc1/C=C1\Sc2ccc(C(=O)N3CCN(c4ccccn4)CC3)cc2N(C)C1=O	7	0	-9	4	i	7	26	/
CCc1nc2ccc(C(=O)N3CCCC(C(N)=O)C3)cn2c1N(C)Cc1ccc(OC)cc1 (stereo unspecified)	/	-1	5	/	/	-14	/	5
Cc1ccc(-c2nc(NC(=O)c3nn(C)cc3[N+](=O)[O-])sc2C)cc1	2	-17	-33	6	i	0	/	/
CC(OC(=O)c1ccccc1Oc1ccccc1)C(=O)NC1CC1 (stereo unspecified)	2	5	-4	2	i	-10	-4	1
CC1=CC=CN2CC(O)CN=C12 (stereo unspecified)	-5	2	4	-7	i	/	4	/
CC(C)CC(=O)Nc1ccc(N2CCOCC2)cc1	1	5	11	1	i	-14	-2	/
C=CCc1cc(C=O)cc(OCC)c1O	-6	4	6	-14	i	/	0	-12
c1ccc(-c2nc(-n3nc4ccccc4n3)nc3ccccc23)cc1	0	-10	-9	-6	i	/	/	/
O=C(CO/N=C/c1ccc(OC(F)F)cc1)NC1CCCC1	-8	-1	0	-4	i	/	16	-10
CC(=O)Nc1ccccc1C(=O)C(=O)Nc1ccc(C)c(F)c1	-4	5	4	-1	i	/	/	/
Cc1ccc(NC(=O)CCCN2C(=O)c3cccc4cccc(c34)C2=O)cc1	2	7	1	2	i	-7	-5	21
CCNC(=O)C1(C)CCN(C(=O)c2cccc(OC(C)=O)c2C)C1 (stereo unspecified)	/	5	11	/	/	-5	/	-9
O=C1C2C3C=CC(C3)C2C(=O)N1CN(Cc1ccccc1)CN1C(=O)C2C3C=CC(C3)C2C1=O (stereo unspecified)	-6	0	-1	3	i	-5	-3	-93
COc1ccc(CNC(=O)CN2C(=O)CCSc3ccc(S(=O)(=O)N4CCCC4)cc32)cc1	-4	-1	1	0	i	1	-1	4
COC(=O)CSc1cnc2ccccc2n1	6	1	9	0	i	-11	0	/
Cc1nc([N+](=O)[O-])c(Sc2nc3ccccc3[nH]2)n1Cc1ccccc1	15	4	-3	-10	i	-8	0	-29
CC(=O)Nc1ccc(NC(=O)CSc2ncnc3sc(C)c(C)c23)cc1	0	1	1	3	i	/	/	-9
Cc1cccnc1NC(=O)CNC(=O)c1cccs1	/	1	3	/	i	/	-9	5
Cc1nn(-c2ccccc2)cc1/C=N/NC(N)=S	-5	8	4	2	i	0	-17	47
Cc1ccc(CNC(=O)c2ccc(S(=O)(=O)N3CCCCC3)cc2)cc1	/	-2	2	/	/	-3	/	13
O=S(=O)(NCCC1=CCCCC1)c1c(Cl)cccc1Cl	/	3	-2	/	i	-6	-9	11
CCCCn1c(N)c(N(CC)C(=O)c2ccc(Cl)c([N+](=O)[O-])c2)c(=O)[nH]c1=O	35	-2	1	4	i	-17	25	6
CCC(C(=O)OCC(=O)Nc1ccc(C(N)=O)cc1)c1ccccc1 (stereo unspecified)	0	2	2	-4	i	/	-2	6
COc1ccc(OC)c(-c2cc(C(=O)NCCN3CCOCC3)no2)c1	-7	2	1	-10	i	-18	-1	/
Cc1nn(C(C)(C)C)c(OC(=O)c2cccs2)c1S(=O)(=O)c1ccccc1	5	-1	0	17	i	8	48	-17
COc1ccc(CCNC(=O)C2CCCN2S(=O)(=O)c2ccc(F)cc2)cc1OC (stereo unspecified)	3	-1	-1	-1	i	-13	-2	-2
C[C@@H]1CCC[C@@]2(O[C@H](CCO)C[C@H](O)[C@H]2O)O1	/	/	/	/	i	-20	2	13
CCOCCCN1C(=O)C2C(C(=O)Nc3ccc(OCC)cc3)C3C=CC2(O3)C1C(=O)NC1CCCCC1 (stereo unspecified)	0	-2	2	-3	i	-2	-13	/
COc1ccc(OC)c(/C=C/C(=O)OCC(=O)Nc2ccc3c(c2)OCCO3)c1	3	0	1	-6	i	/	36	-13
COc1ccc(OC)c(-n2c(-c3cc(-c4ccc(F)cc4)n[nH]3)n[nH]c2=S)c1	-2	-5	1	0	i	/	-6	/
COc1nc(N)nc(NC23CC4CC(CC(C4)C2)C3)n1	-2	-6	0	-9	/	-14	11	/
Cc1cccc(NS(=O)(=O)c2cccc(C(=O)NCC3(N4CCOCC4)CCCCC3)c2)c1	/	-2	-2	/	/	-20	/	0
Cc1cc(C)cc(-n2nnc(C(=O)NCc3ccccc3Cl)c2N)c1	3	-2	2	8	i	-18	0	-59
CC(=O)c1cc(C)c(OC(=O)c2ccccc2)c(C)c1	/	4	-5	/	/	0	/	-3
O=C(CCC(=O)c1ccccc1)NCCc1c[nH]c2ccccc12	5	6	13	4	i	-12	12	/
CCN(CC(=O)NC(C)(C)C)Cc1nc2c(Br)cc(Br)cc2c(=O)[nH]1	-3	3	-4	14	i	/	/	10
CCOc1cc(/C=N/NC(=O)C(OC)c2ccccc2)ccc1O (stereo unspecified)	-2	1	-3	2	i	-10	-8	-1
O=C(CN1C(=O)COc2ccccc21)NCCN1CCC(Cc2ccccc2)CC1	0	-1	4	-11	/	-24	5	-12
CCC/C=N/NC(=O)c1cccc(Br)c1	1	0	4	-1	i	/	2	-1
Cc1ccc(NC(=O)CN2C(=O)C3CC=CCC3C2=O)cc1S(=O)(=O)N1CCOCC1 (stereo unspecified)	0	0	0	-1	i	2	/	0
CC(C)NC(=O)CSCc1cccc(Br)c1	-1	4	5	-4	i	5	-13	/
COCCNC(=O)c1ccc(-c2csc(C)n2)cc1	5	1	4	1	i	/	1	7
CC(C)OCCCNC(=O)NC12CC3CC(CC(C3)C1)C2	6	1	2	-5	i	-1	-2	/
CC1=NNC(=O)C1CCC(=O)N/N=C/c1c(Cl)cccc1Cl (stereo unspecified)	-2	0	3	4	i	/	-1	16
Cc1ccccc1NC(=O)CC1SC(=NC2CCCCC2)NC1=O (stereo unspecified)	-11	-3	-1	0	i	-15	-9	/
COc1ccc(S(=O)(=O)Nc2cc3c4c(c2)C(C)C(=O)N4CCC3)cc1OC (stereo unspecified)	/	-3	-2	/	i	0	-4	/
O=C(Oc1ccc(NC2=C(Cl)C(=O)c3ccccc3C2=O)cc1)c1ccc([N+](=O)[O-])cc1	-2	5	-6	34	i	/	/	/
CCN(CCn1cccn1)C(=O)CC1C(=O)NCCN1Cc1ccc(OC)c(OC)c1 (stereo unspecified)	-6	3	9	-6	i	-17	-20	-8
Cc1cccc(C)c1NC(=O)N1CCCCCCC1	-5	0	0	-2	i	/	-5	18
Cn1c(=O)[nH]c(=O)c2c1nc(Br)n2CCSc1nnnn1-c1ccccc1	3	-4	8	10	i	/	-3	/
CCN(CC)CCN1C(=O)c2oc3ccccc3c(=O)c2C1c1cccc(Br)c1 (stereo unspecified)	3	1	-1	-6	i	/	-8	/
CC(OC(=O)c1ccccc1Nc1ccc(SC(F)F)cc1)C(N)=O (stereo unspecified)	7	-14	-27	-4	i	-14	45	29

New compounds follow:
mol	PABP FP inh	MT1-MMP act inh	MT1-MMP act inh RFP	eIF4H inh	Rce1 inhib	UUG fidelity	CSC inhib	HIV Env fusion
CC(=O)Nc1ccc(S(=O)(=O)NC(CC(=O)NC2CCCCC2C)C(C)C)cc1 (stereo unspecified)	-3	/	/	2	i	/	-6	/
Cc1c(C(=O)O)sc2nc(SCC(=O)Nc3ccc(S(=O)(=O)NC(C)(C)C)cc3)[nH]c(=O)c12	2	-4	3	0	i	/	-5	7
Cn1c(=O)c(C(=S)NC(=O)C2CC2)c(N)n(Cc2ccccc2)c1=O	6	/	/	-1	i	/	5	/
Cc1ccc(N=C2NC(=O)/C(=C\c3ccc(C)s3)S2)cc1	35	-11	-4	44	i	/	-5	13
Cc1ccc(CNC(=O)CCCNS(=O)(=O)c2cccc3nonc23)cc1	4	14	3	5	i	5	-3	-187
O=C(Nc1ccc(OC(F)(F)F)cc1)c1cnccn1	-1	0	0	-4	i	-2	-8	-53
O=S(=O)(Nc1cccnc1)c1ccc(Cl)c(C(F)(F)F)c1	2	0	-5	-6	i	-10	-6	-7
CCc1nc(Nc2ccc(NC(C)=O)cc2)c2oc3ccccc3c2n1	5	4	-8	-10	i	5	-5	30
CC(C)CCNC1=CC(=O)CC(c2ccccc2)C1 (stereo unspecified)	15	-4	-5	5	i	12	/	/
CCOc1ccc(NC2CCCCC2NS(=O)(=O)c2ccccc2)cc1 (stereo unspecified)	0	-1	-3	-6	i	/	-5	24
Cn1cnc([N+](=O)[O-])c1N=C(N)N	-3	2	8	-3	i	-4	1	-4
Cc1nn(C(C)C(=O)NCCc2ccccc2)c(=O)c2cc3occc3n12 (stereo unspecified)	12	0	-3	-6	i	-15	-4	5
Cc1ccc(-n2[nH]c(C)c(C=Nc3ccc4[nH]c(=O)[nH]c4c3)c2=O)cc1	0	19	-2	4	i	/	/	3
NC(=O)CN1C(=O)C(=O)N(Cc2cccc(Cl)c2)C1=O	3	-1	5	-4	i	-12	-9	4
Nc1nc(-c2ccccc2)c(C(=O)Nc2ccccc2)s1	16	-6	-4	-4	i	/	0	-22
CC(C)(C)c1ccc(OCc2ccc(C(=O)N/N=C3\CC4CC=CC34)cc2)cc1 (stereo unspecified)	4	7	-5	1	i	-4	42	/
COC(=O)c1cn(CC(=O)NC2CCCCCC2)c2ccccc12	-8	4	0	-11	i	-12	-2	/
Cc1ccc(Cn2cccc2/C=N/NC(=S)Nc2ccc(C)cc2)cc1	11	7	-2	3	i	-54	/	12
O=C(c1c[nH]c2ccc(S(=O)(=O)N3CCC4(CC3)OCCO4)cc2c1=O)N1CCOCC1	-6	1	2	-4	i	-14	/	/
CC(C)CCC(CCN1CCOCC1)c1ccc2c(c1)OCO2 (stereo unspecified)	-4	4	-1	7	i	-6	0	-21
Cc1ccc(C)c(C(=O)Nc2c(C(N)=O)oc3ccccc23)c1	5	3	0	1	i	-24	-12	0

3 entries out of the list above, ordered by their value in MT1-MMP act inh RFP, falling:
compound	MT1-MMP act inh	MT1-MMP act inh RFP	Rce1 inhib	UUG fidelity	HIV Env fusion
Cn1cnc([N+](=O)[O-])c1N=C(N)N	2	8	i	-4	-4
CCCCn1c(N)c(N(CC)C(=O)c2ccc(Cl)c([N+](=O)[O-])c2)c(=O)[nH]c1=O	-2	1	i	-17	6
Cc1cccc(NS(=O)(=O)c2cccc(C(=O)NCC3(N4CCOCC4)CCCCC3)c2)c1	-2	-2	/	-20	0
